Assay outcomes deposited in PubChem BioAssay by several laboratories.
Insulin prom inh = TRM-6 insulin promoter activity inhibition. hit rate 0.9% among 130,000. AID 1273. inhibition, % at 2 µM. TRM-6 cells (human fetal islet line), insulin promoter-eGFP reporter, imaging; reporter expression induced with tamoxifen;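 active = inhibition above the mean plus 3 SD, with well images judged a real hit on visual review, cut at about 60% in these data, passing the limit was not always enough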
HSV augment = HSV replication enhancement. hit rate 0.005% among 220,000. maximum fold increase. HSV replication augmentation in cells, fold increase;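 active = peak rise of 1.5-fold or more in the series; tested in PC3 cells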;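 note: first round at 10 µM; read as green reporter fluorescence; hits show the peak of a series up to 25 µM; 1 = signal of infected wells without compound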
RGS16-Gao HTS = regulators of human RGS16-Galphao interaction | hit rate 0.38% among 220,000 | bead-based flow cytometry RGS16-Galphao binding, fluorescence; actives lie on both sides | binding response (% of control), % at 10 µM | AID 1441 | O15492+P09471;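 active = below 25% or above 175%, edge rows of some plates excepted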;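 note: Galphao activated by GDP with aluminum fluoride before binding; 100% = wells without compound and 0% = beads without RGS; some results beyond the cut were filed as inactive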
Target sequence (O15492 whole entry, looked up): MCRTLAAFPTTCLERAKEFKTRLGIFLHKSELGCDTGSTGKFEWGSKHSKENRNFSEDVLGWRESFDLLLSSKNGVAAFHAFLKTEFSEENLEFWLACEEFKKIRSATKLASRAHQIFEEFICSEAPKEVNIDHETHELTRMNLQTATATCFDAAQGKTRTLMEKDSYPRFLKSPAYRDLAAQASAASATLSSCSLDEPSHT
Target sequence (P09471 whole entry, looked up): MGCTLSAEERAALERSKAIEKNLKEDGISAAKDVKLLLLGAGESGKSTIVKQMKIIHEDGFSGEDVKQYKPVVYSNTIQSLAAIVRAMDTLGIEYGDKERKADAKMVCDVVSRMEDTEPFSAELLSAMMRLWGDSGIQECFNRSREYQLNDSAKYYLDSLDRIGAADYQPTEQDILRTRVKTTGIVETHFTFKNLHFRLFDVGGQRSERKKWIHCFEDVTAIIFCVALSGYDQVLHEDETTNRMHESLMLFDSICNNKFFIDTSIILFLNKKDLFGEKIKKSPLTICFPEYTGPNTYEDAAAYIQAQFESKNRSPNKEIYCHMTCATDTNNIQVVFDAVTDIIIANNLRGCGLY
GALR2 ag = GALR2 (human) receptor agonism; hit rate 0.48% among 140,000; GALR2-expressing cells, agonist activation read-out; AID 803; O43603; activation, %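 (tested at 5 µM)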;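 active = above mean plus 3 SD of all compounds, about 5% in these data, not always enough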;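 note: 0% = vehicle buffer wells and 100% = reference agonist at full effect; tested in CHO reporter cells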
Target sequence (O43603 whole entry, looked up): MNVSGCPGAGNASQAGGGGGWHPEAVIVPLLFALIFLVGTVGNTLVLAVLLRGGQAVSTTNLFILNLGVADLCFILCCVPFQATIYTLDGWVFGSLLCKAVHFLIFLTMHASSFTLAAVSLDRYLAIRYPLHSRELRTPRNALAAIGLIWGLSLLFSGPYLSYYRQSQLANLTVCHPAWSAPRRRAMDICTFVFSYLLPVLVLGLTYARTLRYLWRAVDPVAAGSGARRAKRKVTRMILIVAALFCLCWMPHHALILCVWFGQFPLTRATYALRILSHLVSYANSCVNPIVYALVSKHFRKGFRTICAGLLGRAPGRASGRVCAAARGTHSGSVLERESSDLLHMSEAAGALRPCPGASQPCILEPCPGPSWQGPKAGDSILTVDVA
PKD1 inh = inhibitors of human PKD1 kinase; hit rate 0.056% among 200,000; inhibition, %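 (about 10 µM by stock and volumes)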; PKD1 kinase fluorescence polarization assay; AID 797; Q15139;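 active = inhibition of 50% or more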;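 note: controls were vehicle for no effect and a reference inhibitor for full effect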
Insulin prom inh cell count = also measured in Insulin prom inh; calls as there; normalized cell count, %; measured here: cell count, toxicity; reference of the scale not given here;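 cells exposed to compound for 48 h; stained nuclei by imaging scaled within each plate; lower means fewer cells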
HSV augment primary fold = recorded beside HSV augment, whose call it bears; fold increase; compound at 10 µM; measured here: primary screen fold increase 10 uM; tested in PC3 cells;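 GFP signal in the first replicate; 1 = infected wells without compound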
Numbers without * were called inactive; i = inactive; x = not tested or not shown.

The line under a structure holds: Insulin prom inh	Insulin prom inh cell count	HSV augment	HSV augment primary fold	RGS16-Gao HTS	GALR2 ag	PKD1 inh
1	Cc1ccc(C(=O)O)cc1-c1ccc(C=C2C(=O)c3ccccc3C2=O)o1
→ 0	70	i	1	98	x	-3
2	Cc1cc2c(ncn2C)c(NS(=O)(=O)c2ccc(Cl)cc2)c1C
→ 8	71	x	x	187	x	-3
3	Cc1ccccc1NS(=O)(=O)c1ccc(C(=O)N2CCN(c3ccccn3)CC2)cc1
→ 44	93	i	0.97	100	x	2
4	COc1ccc(CC2(CO)CCN(Cc3cnn(C)c3C)CC2)cc1
→ x	x	i	0.98	107	x	-11
5	COCC(=O)N(Cc1cc2cc(OC)ccc2[nH]c1=O)c1ccccc1
→ -27	78	i	0.98	90	-1.1	-5
6	CCCCCCCc1nc2sc3c(c2c(=O)n1N)CC(C)(C)OC3
→ x	x	i	1	98	x	x
7	Cc1ccc(CC2CC(=O)N(c3nc(C)cc(C)n3)C2=O)cc1 (stereo unspecified)
→ 36	107	i	0.96	97	x	4
8	COc1cccc(N2CCN(C3CCCC(C)C3)CC2)c1 (stereo unspecified)
→ x	x	i	0.96	105	-2.1	-8
9	O=C(NCCC1=CCCCC1)C1CCN(C(=O)Nc2ccccc2)CC1
→ -24	86	i	0.99	98	0.4	3
10	CCOC(=O)C(=O)Nc1cc(C)on1
→ -14	90	i	0.99	98	x	-2
11	O=C(Nn1c(-c2ccc(F)cc2)nc2ccccc2c1=O)c1cccnc1
→ -33	78	i	0.86	100	x	-5
12	COc1ccc(C(C)NC(=O)C2CCCO2)cc1OC (stereo unspecified)
→ -31	149	i	0.93	103	-2.7	-4
13	CC(C)c1ccc(CN(C)CC(O)c2ccccc2)cc1 (stereo unspecified)
→ x	x	i	0.83	96	x	-5
14	Cc1ccc(Cl)cc1N1CCN(C(=O)c2ccc(CN3CCOCC3)cc2)CC1
→ -20	99	i	0.82	108	2.0	-6
15	O=C(Cc1ccc(Cl)cc1)c1c[nH]c(C(=O)NCCCN2CCOCC2)c1
→ x	x	i	0.93	104	x	-3
16	COc1cc(C(=O)NCc2ccncc2)cc(OC)c1OC
→ x	x	i	0.72	103	x	2
17	CCn1cc(/C=C(\NC(=O)c2ccc(OC)c(OC)c2)C(=O)NCCCO)c2ccccc21
→ -67	119	i	0.98	98	x	-5
18	COc1ccccc1NC(=O)N1CCCC1C(=O)NCc1ccccc1 (stereo unspecified)
→ -36	39	i	1	99	0.0	-6
19	CC(C)Sc1nc2c([nH]c3ccccc32)c(=O)n1C
→ -118	108	i	0.88	111	x	-4
20	CC(C)(CC(=O)O)CC(=O)Nc1ccc(Cl)c(Cl)c1
→ x	x	i	1	103	x	x
21	O=C(OCc1cnc(Cl)s1)c1ccccc1Cl
→ 20	131	i	0.94	101	-1.5	1
22	O=C(CN(c1ccccc1F)S(=O)(=O)c1ccccc1)Nc1ccccc1C(=O)N1CCOCC1
→ 0	109	i	0.96	99	x	1
23	COc1ccc(OC)c(CN2CCC(C(=O)N(C)CCc3ccc(OC)c(OC)c3)CC2)c1
→ x	x	i	0.84	104	x	1
24	COc1cccc(C2CC(c3cccs3)=NN2S(C)(=O)=O)c1OC (stereo unspecified)
→ x	x	i	1.1	109	x	1
25	COC(=O)/C=C/C(=O)Nc1cccnc1
→ x	x	i	1	100	-1.7	-15
26	CCC(=O)Nc1ccc(-c2nnc(-c3ccccc3)o2)cc1
→ x	x	i	0.97	97	0.7	-2
27	COc1ccc(Cn2cccc(NC(=O)Nc3cccc(OC)c3)c2=O)cc1
→ x	x	i	0.98	91	x	x
28	CN(C)c1ccc(C(=O)/C=C/c2ccccc2)cc1
→ -14	132	i	0.91	102	x	-1
29	COC(=O)c1ccc(N2CCN(C)CC2)c(NC(=O)c2cc3ccccc3o2)c1
→ -30	88	i	0.9	99	-1.0	7
30	CCOc1ccc(OCC)c(NC(=O)CC2Oc3ccccc3NC2=O)c1 (stereo unspecified)
→ x	x	i	0.91	115	-1.9	-10
31	O=C(NCc1ccccc1)C1CCCN(C(=O)Nc2ccccc2)C1 (stereo unspecified)
→ x	x	i	0.88	97	-0.1	1
32	COc1cccc(C(=O)/C=C/Nc2ccc(S(=O)(=O)Nc3onc(C)c3C)cc2)c1
→ x	x	i	1	102	0.5	7
33	Cc1cc(C)c(NC(=O)CSc2nc3ccc(NC(=O)CSc4nnnn4Cc4ccccc4)cc3s2)c(C)c1
→ -62	92	i	0.98	x	-1.0	2
34	N/C(=N\OC(=O)COc1ccc2ccccc2c1)c1cccnc1
→ x	x	i	1.1	103	0.1	3
35	O=c1c2oc3ccccc3c2ncn1Cc1cccc(Cl)c1
→ -19	91	i	0.93	94	x	-5
36	CCc1nnc(NC(=O)c2nn(-c3ccccc3)nc2C)s1
→ x	x	i	0.91	97	x	x
37	O=C(O)C1CCCN(S(=O)(=O)c2ccc(Br)cc2)C1 (stereo unspecified)
→ 3	86	i	0.96	106	-1.7	-11
38	COc1cc(OC)c(NS(=O)(=O)c2ccc(Cl)c(C(=O)OC(C)C(=O)N3CCCC3)c2)cc1Cl (stereo unspecified)
→ -43	115	i	0.94	102	-0.1	-1
39	CCOC(=O)c1c(C)n(C)c2cc(OCCN(CC)CC)ccc12
→ x	x	i	0.92	100	-1.5	-9
40	OC(COc1c(Br)cc(Br)cc1Br)CN1CCOCC1 (stereo unspecified)
→ x	x	i	1.1	115	0.5	-17
41	COc1ccc(NC(=O)Cn2c(=O)n(-c3ccccc3)c(=O)c3sccc32)c(OC)c1
→ -118	158	i	0.86	110	x	-3
42	CCCCCOC(=O)Cn1c(=O)c2c(nc(N3CCOCC3)n2C)n(C)c1=O
→ 3	86	i	0.88	109	-2.6	5
43	Nc1cc(C(=O)OCC(=O)N2CCCC2)ccc1Cl
→ x	x	i	1.1	103	-2.6	-7
44	O=C(CCCOc1ccc(Cl)cc1Cl)NCc1ccccn1
→ x	x	i	0.95	98	x	-2
45	O=C(Cn1c(O)c(/C=C2\C=Nc3ccc(Br)cc32)sc1=O)N1CCCC1
→ x	x	x	x	99	-1.3	-1
46	CCC(C)(C)n1nnnc1C(c1cc2cccc(C)c2[nH]c1=O)N1CCCC1 (stereo unspecified)
→ 25	119	i	1	109	-0.6	-5
47	CCn1c(SCC(=O)N=Nc2c(O)[nH]c3ccccc23)nnc1-c1ccc(C(C)(C)C)cc1
→ 2	108	i	0.98	105	-0.2	-4
48	Cc1cc(C(F)F)n2nc(C(=O)Nc3ccc(S(=O)(=O)NC45CC6CC(CC(C6)C4)C5)cc3)nc2n1
→ -14	109	i	0.88	102	0.4	-5
49	CCN(CC)C(=O)CSc1nc(OC)cc(=O)[nH]1
→ 23	131	x	x	83	-2.9	-3
50	O=c1cc(CSc2nc3ccccc3[nH]2)c2ccccc2[nH]1
→ x	x	i	0.97	104	-1.8	-2
51	COc1ccc(S(=O)(=O)Oc2ccc3ccccc3c2)cc1
→ -23	133	i	0.93	108	-2.3	-13
52	COC(=O)COc1nc(C)c2c(c1C#N)CC(C)(C)OC2
→ 21	55	i	0.83	94	-1.9	-7
53	O=C(NC(=S)Nc1cccc(O)c1)c1ccco1
→ x	x	i	1.1	95	x	x
54	COc1ccc(NC(=O)CSc2nncs2)cc1S(N)(=O)=O
→ x	x	i	0.66	95	x	x
55	CC(C)NC(=O)CCCn1cc([N+](=O)[O-])cn1
→ -55	66	i	0.94	106	x	-2
56	COc1ccc(NC(=O)c2sc(NC(=O)COc3ccccc3)nc2C)cc1
→ -3	135	i	0.78	116	-2.3	-9
57	COc1ccccc1C(=O)Nc1ccc(S(=O)(=O)Nc2cc(C)on2)cc1
→ -32	108	i	0.71	101	0.0	3
58	S=C(NCC1CCCO1)Nc1cccc2ccccc12 (stereo unspecified)
→ x	x	i	1	104	x	-4
59	C=CCn1c(SCC(=O)Nc2ccccc2OC)nc(O)c(CC)c1=O
→ 22	102	i	0.97	99	-1.5	-7
60	COc1cc(NC(=O)c2cccs2)c(OC)cc1NC(=O)CCn1nnc2ccccc21
→ x	x	i	1.1	104	-1.2	7

Part of the list above in another layout.
item	Compound	Insulin prom inh	Insulin prom inh cell count	HSV augment	HSV augment primary fold	RGS16-Gao HTS	GALR2 ag	PKD1 inh
29	COC(=O)c1ccc(N2CCN(C)CC2)c(NC(=O)c2cc3ccccc3o2)c1	-30	88	i	0.9	99	-1.0	7
30	CCOc1ccc(OCC)c(NC(=O)CC2Oc3ccccc3NC2=O)c1 (stereo unspecified)	x	x	i	0.91	115	-1.9	-10
31	O=C(NCc1ccccc1)C1CCCN(C(=O)Nc2ccccc2)C1 (stereo unspecified)	x	x	i	0.88	97	-0.1	1
32	COc1cccc(C(=O)/C=C/Nc2ccc(S(=O)(=O)Nc3onc(C)c3C)cc2)c1	x	x	i	1	102	0.5	7
33	Cc1cc(C)c(NC(=O)CSc2nc3ccc(NC(=O)CSc4nnnn4Cc4ccccc4)cc3s2)c(C)c1	-62	92	i	0.98	x	-1.0	2
34	N/C(=N\OC(=O)COc1ccc2ccccc2c1)c1cccnc1	x	x	i	1.1	103	0.1	3
35	O=c1c2oc3ccccc3c2ncn1Cc1cccc(Cl)c1	-19	91	i	0.93	94	x	-5
36	CCc1nnc(NC(=O)c2nn(-c3ccccc3)nc2C)s1	x	x	i	0.91	97	x	x
37	O=C(O)C1CCCN(S(=O)(=O)c2ccc(Br)cc2)C1 (stereo unspecified)	3	86	i	0.96	106	-1.7	-11
38	COc1cc(OC)c(NS(=O)(=O)c2ccc(Cl)c(C(=O)OC(C)C(=O)N3CCCC3)c2)cc1Cl (stereo unspecified)	-43	115	i	0.94	102	-0.1	-1
39	CCOC(=O)c1c(C)n(C)c2cc(OCCN(CC)CC)ccc12	x	x	i	0.92	100	-1.5	-9
40	OC(COc1c(Br)cc(Br)cc1Br)CN1CCOCC1 (stereo unspecified)	x	x	i	1.1	115	0.5	-17

(further entries)
The line under a structure holds: Insulin prom inh	Insulin prom inh cell count	HSV augment	HSV augment primary fold	RGS16-Gao HTS	GALR2 ag	PKD1 inh
61	CCOC(=O)C1CCCN(C2CC(=O)N(c3ccc(C)cc3)C2=O)C1 (stereo unspecified)
→ 68*	83*	i	0.74	86	0.0	2
62	CCn1ncc(C2=NOC(C(=O)Nc3cc(OC)c(Cl)cc3OC)C2)c1C (stereo unspecified)
→ -9	112	i	0.99	105	-1.0	-22
63	O=C(Nc1ncccn1)c1ccc([N+](=O)[O-])o1
→ x	x	i	1.1	98	x	-4
64	Cc1ccc(-n2nc3c(c2NC(=O)/C=C\c2ccc4c(c2)OCO4)CSC3)cc1
→ 2	88	x	x	102	0.1	-9
65	COc1cc(-c2nc(-c3ccccn3)no2)cc(OC)c1OC
→ 17	97	i	0.9	32	0.0	-6
66	COc1ccc(NC(=O)C2=C(C)Nc3nc(CCCO)nn3C2c2ccc(OC)c(OC)c2)cc1 (stereo unspecified)
→ x	x	i	0.98	101	x	1
67	Cc1cccc(NC(=S)NNC(=O)COc2ccc(Cl)cc2Cl)c1
→ x	x	i	1	100	0.3	1
68	CCCCC(=NCCc1c(C)[nH]c2ccccc12)C1=C(O)CC(c2ccccc2)CC1=O (stereo unspecified)
→ -60	71	i	0.71	95	x	3
69	CCCCn1c(NC(=O)CC)c(C#N)c2nc3ccccc3nc21
→ 41	47	i	0.92	109	0.1	-6
70	O=C(COC(=O)c1ccccc1)c1ccc(Br)cc1
→ x	x	i	1.2	94	-1.4	-5
71	COC(=O)[C@H]1C[C@@H]1[C@H](NC(=O)[C@H]1C[C@@H]1[C@H](NC(=O)OCc1ccccc1)c1ccccc1)c1ccccc1
→ -27	99	i	0.79	112	-3.2	-3

Rewritten with tabs: 2 of the compounds above.
nr	canonical_smiles	Insulin prom inh	Insulin prom inh cell count	HSV augment	HSV augment primary fold	RGS16-Gao HTS	GALR2 ag	PKD1 inh
16	COc1cc(C(=O)NCc2ccncc2)cc(OC)c1OC	x	x	i	0.72	103	x	2
17	CCn1cc(/C=C(\NC(=O)c2ccc(OC)c(OC)c2)C(=O)NCCCO)c2ccccc21	-67	119	i	0.98	98	x	-5

An unsorted share of the library. Share with any hit: about 1.2%.
